Bioassay records as filed in PubChem BioAssay.
MgrA DNA FP: S. aureus MgrA activity modulators, primary screen, biochemical, S. aureus Newman, fluorescence polarization; 84,000 compounds, 0.13% hits; inhibition, %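 (about 10 µg/mL by stock and volumes)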; AID 602314, 2012; MgrA-DNA binding;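 active = above 50% in either of two replicates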;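 also: 0% = protein plus DNA without compound and 100% = DNA alone without protein; higher means less MgrA bound to DNA so lower polarization; one replicate is shown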
Sa helicase inh: inhibitors of S. aureus replicative helicase, primary screen, biochemical, fluorescence unwinding readout. purified S. aureus helicase, fluorescence unwinding assay; about half of the hits fall short of the stated cut. AID 485395, 2010. replicative DNA helicase (DnaC/DnaB), Staphylococcus aureus. inhibition, %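 (tested at about 80 µM)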. 120,000 compounds, 0.05% hits;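 active = both duplicates at 50% or more, or one of them with a favoured structure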;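 also: 0% = mean of negative control wells and 100% = mean of positive control wells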
* hit, by the source's call; · = no result given; & = joins results of further samples. A portion of the library; count on the stated rates, not on these rows.

SMILES | Sa helicase inh | MgrA DNA FP
CCCn1c2ccccc2c2nnc(SCC(=O)NC(C)c3ccccc3)nc21 (stereo not drawn) | 20 | 2.4
CCCC(=O)n1c(=S)oc2cc(Cl)ccc21 | 9 | -0.5
Cc1cc(C(=O)Nc2ccccc2)no1 | · | -2.7
Cc1ccc(C(=O)CC(NCCc2c[nH]c3ccccc23)C(=O)O)cc1 (stereo not drawn) | 4 | 3.7
O=C(NCc1ccc2c(c1)OCO2)C(=S)N1CCCCC1 | 14 | 8.9
O=C(O)CCC(=O)Nc1cccc(-c2nc3ccccc3[nH]2)c1 | 7 | 2.3
CN(C(=O)CSC1=Nc2ccccc2C2=NC(c3ccccc3)C(=O)N12)C1CCCCC1 (stereo not drawn) | 15 | 0.2
CCOc1ccc2c(=O)c(-c3ccccc3)c(C)oc2c1 | 10 | 0.6
COc1ccccc1-c1c(C)nn2c(NCCN3CCCCC3C)cc(C)nc12 (stereo not drawn) | 27 | -0.1
CCOC(=O)c1c(/N=c2\oc3ccc(Cl)cc3cc2C(N)=O)sc2c1CCCC2 | · | -1.4

By substructure: those above with a COOH group.
SMILES | Sa helicase inh | MgrA DNA FP
Cc1ccc(C(=O)CC(NCCc2c[nH]c3ccccc23)C(=O)O)cc1 (stereo not drawn) | 4 | 3.7
O=C(O)CCC(=O)Nc1cccc(-c2nc3ccccc3[nH]2)c1 | 7 | 2.3

Remaining list, next part:
SMILES | Sa helicase inh | MgrA DNA FP
O=C(NCCc1ccccc1)C1(S(=O)(=O)c2ccc(Cl)cc2)CC1 | -14 | 1.9
CC(C)c1ccc(NC(=O)CN2C(=O)C3CC=CCC3C2=O)cc1 (stereo not drawn) | 16 | -1.8
O=C(Nc1cc(F)c(Br)cc1F)c1ccco1 | · | -2.2
C(=Nc1nc2ccccc2nc1N1CCOCC1)N1CCN(C(c2ccccc2)c2ccccc2)CC1 | -11 | ·
CC1CCCCN1c1nnc(NC(=O)Cn2c(=O)oc3ccccc32)s1 (stereo not drawn) | 12 | ·
CC1CCN(CC(=O)n2c3ccccc3c3ccccc32)CC1 | 25 | ·
Cc1ccccc1-c1nsc(SCC(=O)NCc2ccco2)n1 | 1 | ·
Cc1c(Cl)ccc2c(C(=O)Nc3cc(C(C)(C)C)on3)cc(-c3ccccn3)nc12 | 21 | 3.0
CCCC1C(=O)CC(C#N)(C#N)C(C#N)(C#N)C1C (stereo not drawn) | 3 | ·
CCOC(=O)c1cc(=O)c(-c2ccccc2)n[nH]1 | -1 | -0.5

Ordered by number of heavy atoms (largest number first): some entries from above.
SMILES | Sa helicase inh | MgrA DNA FP
CC1CCCCN1c1nnc(NC(=O)Cn2c(=O)oc3ccccc32)s1 (stereo not drawn) | 12 | ·
CCOc1ccc2c(=O)c(-c3ccccc3)c(C)oc2c1 | 10 | 0.6
O=C(Nc1cc(F)c(Br)cc1F)c1ccco1 | · | -2.2
Cc1cc(C(=O)Nc2ccccc2)no1 | · | -2.7

The list goes on:
SMILES | Sa helicase inh | MgrA DNA FP
CCc1nc(NCCCO)c2nnn(Cc3ccccc3F)c2n1 | 2 | -1.3
C#CCN1C(=O)S/C(=C/c2ccc(N3CCCCC3)cc2C)C1=O | -81 | -3.6
CCCc1cc(C(=O)Nc2sc(C)c(C)c2C(=O)OCC)no1 | -16 | ·
NCCCOc1ccccc1 | -7 | ·
Cc1noc(C)c1COc1ccc(C(=O)NCCNc2ncc(C(F)(F)F)cc2Cl)cc1 | -2 | ·
O=C(CSc1nnnn1-c1ccccc1)N1c2ccccc2CCc2ccccc21 | 7 | 1.6
COc1ccc(NC(=O)CSc2c(C)nn(-c3nnc(C)c(=O)[nH]3)c2C)cc1 | -19 | ·
C=CCNC(=O)/C=C/c1ccc(C(C)C)cc1 | 4 | 1.6
CCN(CC)C(=O)Cn1cc(S(=O)(=O)CC#N)c2ccccc21 | 6 | ·
COc1ccc2oc(=O)c(-c3nnc(-c4ccccc4)o3)cc2c1 | 15 | -1.3

Among those listed so far, 4 have an aryl thioether with sulfur outside any ring.
SMILES | Sa helicase inh | MgrA DNA FP
CCCn1c2ccccc2c2nnc(SCC(=O)NC(C)c3ccccc3)nc21 (stereo not drawn) | 20 | 2.4
Cc1ccccc1-c1nsc(SCC(=O)NCc2ccco2)n1 | 1 | ·
O=C(CSc1nnnn1-c1ccccc1)N1c2ccccc2CCc2ccccc21 | 7 | 1.6
COc1ccc(NC(=O)CSc2c(C)nn(-c3nnc(C)c(=O)[nH]3)c2C)cc1 | -19 | ·

Next part.
SMILES | Sa helicase inh | MgrA DNA FP
CCSc1ccccc1C(=O)NCCO | 21 | -0.1
O=C1C2N=NN(CC(=O)N(c3ccccc3)c3ccccc3)C2C(=O)N1c1ccc(Cl)cc1 (stereo not drawn) | 10 | ·
Cc1cc(C)c(C)c(S(=O)(=O)N2CCN(CN3C(=O)CNC3=O)CC2)c1C | -5 | ·
CC(C)=C(C#N)c1nc2ccccc2s1 | 5 | -1.0
CC(=O)N(c1ccc(F)cc1)c1nc(-c2cc3ccccc3oc2=O)cs1 | 5 | -0.8
Cc1cc(C(=O)NNC(=O)C(F)(F)F)ccc1[N+](=O)[O-] | · | -1.7
Cc1nc2nc(C)c(NS(=O)(=O)c3ccc(Cl)s3)c(=O)n2[nH]1 | -26 | ·
Clc1ccc2c(c1)C1C=CCC1C(c1ccccc1)N2 (stereo not drawn) | 8 | -4.9
Nc1ccc(Br)cc1C(NCC(=O)O)c1ccccc1 (stereo not drawn) | -11 | ·
CSc1sc(Cl)c2c1/C(=N\O)CC(C)(C)C2 | · | -0.6

SMILES | Sa helicase inh | MgrA DNA FP
Nc1ccc(Cl)cc1C(=O)NCc1ccccn1 | · | 0.9
CC(SCC(=O)Nc1ccccc1)c1nc2ccccc2c(=O)[nH]1 (stereo not drawn) | 10 | 8.1
COc1ccc2nc(SC)c(C#N)cc2c1 | 4 | -1.6
CCN(CC)C(=O)/C=C/c1ccc2c(c1)OCO2 | 7 | 2.5
COc1ccc(C(=O)OCCCN(C2=NS(=O)(=O)c3ccccc32)c2ccccc2)cc1 | · | 1.4
Cc1cccc(C2c3c(n(C)c(=O)n(C)c3=O)N=C3c4ccccc4C(=O)C32)c1 (stereo not drawn) | -7 | ·
C/C=C(\C)C(=O)N1CCC(C(=O)c2ccccc2)CC1 | · | 0.6
Cc1onc(-c2c(Cl)cccc2Cl)c1CO | · | -1.9
O=C(O)c1ccc2c(=O)n3c(nc2c1)CCC3 | -5 | ·
CN(C)c1cc(N)c2cc(Cl)ccc2n1 | 9 | ·

SMILES | Sa helicase inh | MgrA DNA FP
CS/C(=N\S(=O)(=O)c1ccccc1)N1CCCC1 | · | -1.6
Cc1ccc(OCc2n[nH]c(=S)n2-c2ccccc2)c2c1CCC2 | · | 2.7
CN1C[C@H](C(=O)N[C@]2(C)O[C@@]3(O)[C@@H]4CCCN4C(=O)[C@H](Cc4ccccc4)N3C2=O)C[C@@H]2c3cccc4[nH]cc(c34)C[C@H]21 | · | -2.1&13
CCOC(=O)N1CCC(=NNC(=O)c2ccccc2)CC1 | -18 | ·
COC(=O)c1ccc(S(=O)(=O)N2CCCN(C(=O)c3cccs3)CC2)n1C | -17 | ·
Cc1cc(-c2ccc(C)c(S(=O)(=O)N3CCN(CCOc4ccc(Cl)cc4)CC3)c2)on1 | 10 | ·
COc1ccccc1-n1nnnc1SCC(=O)NC1CCCC1 | 5 | ·
CSc1nc2n(n1)C(c1ccccc1)C=C(C)N2 (stereo not drawn) | 1 | -4.0
O=S(=O)(c1ccc(-c2csc(=Nc3ccccc3)n2CCc2ccccc2)cc1)N1CCCC1 | 1 | 1.6
CSC1=NC(C)(C)C=C(C)N1 | · | -0.2

SMILES | Sa helicase inh | MgrA DNA FP
COc1ccc(-c2n[nH]c(=S)n2C2CCCCC2)cc1OC | 26 | ·
Cc1ccccc1-n1c(SCC(=O)c2ccc(Cl)cc2)nc2[nH]ncc2c1=O | 1 | 0.6
CC(C)(C)c1ccc2c(c1)NC(=O)CO2 | 13 | -0.2
Cc1cc(Nc2ccccc2)n(CCO)n1 | -2 | -0.8
CC1CC(Nc2ccccc2)c2ccccc2N1S(=O)(=O)c1ccc(Br)cc1 (stereo not drawn) | 1 | -0.3
N#CC(CO)(Cc1ccccc1)c1nc2ccccc2[nH]1 (stereo not drawn) | 6 | -0.8
CSc1nc(C)nc(Sc2ccccc2)c1C#N | · | 4.4
O=C(CN1CCOCC1)NN=C1CCCCC1 | 3 | -1.6
CC(=O)n1c(SCC(=O)Nc2ccccc2)nc2ccccc21 | 9 | ·
CCOc1cccc(/C=N\NC(=O)c2ccco2)c1O | 10 | ·

SMILES | Sa helicase inh | MgrA DNA FP
CCCCC(=O)NC(c1ccccc1OC)c1cc(Cl)c2cccnc2c1O (stereo not drawn) | -1 | ·
O=C(Cc1ccccc1)Nc1ccc2oc(-c3ccc(Br)cc3)nc2c1 | 7 | -2.7
O=C(NCC(c1cccs1)S(=O)(=O)c1cccs1)Nc1ccc(Cl)cc1 (stereo not drawn) | 7 | ·
Cc1ccc(C(=O)Sc2nc(N)c(C#N)cc2C#N)c(C)c1 | 11 | -4.0
Cc1ccc(C(=O)OCN2C(=O)c3ccccc3C2=O)cc1NC(=O)c1ccco1 | 4 | ·
Nc1cc(=O)[nH]c(SCc2csc(-c3ccccc3)n2)n1 | -16 | ·
CCC(C)(CC(=O)O)CC(=O)Nc1ccc(Cl)cc1 (stereo not drawn) | · | 1.9
CCOCc1c(C(=O)N2CCN(c3ncccn3)CC2)oc2ccccc12 | 16 | ·
CCN(CC(=O)NCc1ccc(Cl)cc1)C(=O)c1c(C)noc1C | 4 | ·
Cc1cccc(OCCn2c(-c3cccc(C)c3)nc3ccccc32)c1 | 6 | -0.6

SMILES | Sa helicase inh | MgrA DNA FP
COC(=O)c1ccccc1NC(=O)c1ccc2c(c1)sc1nc(-c3ccc(OC)cc3)cn12 | -1 | -0.5
CC1=C(C(=O)OCC(C)C)C(c2ccc(Cl)cc2)NC(=O)N1C (stereo not drawn) | 13 | 2.8
O=c1c2c3c(sc2[nH]c(=S)n1Cc1ccccc1)CCC3 | 14 | 5.5
Cc1onc(-c2ccccc2)c1C(=O)N(Cc1ccccn1)Cc1ccccn1 | -16 | ·
c1ccc(CSc2ccc(-c3ccncc3)nn2)cc1 | -6 | -0.1
COC(=O)c1cccc(OCc2nn[nH]n2)c1 | -1 | -3.0
CCc1ccc(N=Cc2c[nH]c3ccccc23)cc1 | 0 | 3.1
C=CCN1C(=O)/C(=C/c2ccccc2F)S/C1=N/c1nnc(CC)s1 | · | 0.8
CN(Cc1ccccc1)Cc1cc(=O)n2nc(C3CC3)sc2n1 | 13 | ·
O=C(Nc1ccc2sccc2c1)c1ccco1 | 9 | ·

SMILES | Sa helicase inh | MgrA DNA FP
CC(C)(C)n1ncc(C(=O)O)c1C1CCNCC1 | 12 | ·
COC(=O)c1cc(=O)n(Cc2ccccc2)c(=NCc2ccccc2)s1 | 11 | ·
Cc1cc2c([nH]c(=O)c3c(=O)[nH]c(C(F)(F)F)nc32)s1 | -9 | 2.0
Cc1ccc(-c2cn3nc(N4CCC(C(=O)NCCCN5CCCCC5)CC4)sc3n2)cc1 | 4 | 0.0
NC(=O)C1CCCN(C(=O)Cc2n[nH]c(=O)c3ccccc23)C1 (stereo not drawn) | 7 | ·
O=C(O)c1ccccc1Nc1ccccc1F | · | -2.2
CC1(C)OC(=O)C(=C2CCCN2)C(=O)O1 | · | -0.5
Cc1[nH]c2ccc(Cl)cc2c(=O)c1CN1CCN(C)CC1 | 4 | -2.8
CCOC(=O)C1=C(CC)Nc2ccccc2N=C1NC(=O)C1CC(=O)N(c2ccc3c(c2)OCCO3)C1 (stereo not drawn) | -9 | ·
O=C(Cc1cccs1)NCCn1ccc2ccccc21 | -25 | ·

SMILES | Sa helicase inh | MgrA DNA FP
COC(=O)c1c(C)[nH]c(C(=O)N2CCN(c3ccccc3)CC2)c1C | 13 | ·
C[N+]1(C2CCC3CCC2C3O)CCCCC1 (stereo not drawn) | 10 | -0.9
COC(=O)c1ccccc1SC(=O)c1ccc(Cl)c(Cl)c1 | · | 0.0
COc1ccc(C(CCN)c2ccccc2)cc1 (stereo not drawn) | 3 | 0.0
Cc1ccc(C(=O)C2C(=O)N(c3ccccc3)C(=O)N(c3ccccc3)C2=O)cc1 | · | -3.5
CSc1ccc(Cl)c(C(=O)OCC(=O)C(C)(C)C)c1 | 16 | -0.1
Cc1cc(N)n(-c2ncnc3scc(-c4ccc(C(C)C)cc4)c23)n1 | 14 | ·
O=c1c2ccccc2nnn1CSc1ccc2c(c1)OCCO2 | -11 | ·
Cc1cccc(C=Nc2ccc(-c3nc4ccccc4o3)cc2)c1O | 5 | 1.8
CCOC(=O)c1cnc2c(c(C)nn2C)c1Sc1cccc(Cl)c1 | · | -1.7

SMILES | Sa helicase inh | MgrA DNA FP
O=C(NC1CCCCC1)c1ccc(Cn2c(=S)[nH]c3ccccc3c2=O)cc1 | 5 | 0.4
COCCN(C(=S)Nc1c(C)cccc1C)C(C)c1cccnc1 (stereo not drawn) | 10 | 2.5
COc1ccc(OC)c(C2C(C#N)=C(N)N(c3cc(-c4ccccc4)[nH]n3)C3=C2C(=O)CCC3)c1 (stereo not drawn) | -3 | -2.5
CNC(=O)COC(=O)c1cc(F)c(F)cc1Cl | 5 | ·
CC1(C)CC(C)(c2cccc3ccccc23)c2cccc3cccc1c23 (stereo not drawn) | · | -1.5
O=C(O)CCCC(=O)Nc1cc(C(F)(F)F)cc(C(F)(F)F)c1 | · | -3.1
CCC(CC)C(=O)Nc1cc(C)c2c(=O)oc3ccccc3c2n1 | -9 | ·
Cc1ccc(NC(=O)c2c(C)noc2-c2cc(C)on2)cc1 | · | -1.0
CCc1ccc2oc(=O)cc(CN(CC)CCO)c2c1 | 8 | ·
COc1ccc(C2NC(=S)NC(C)=C2C(=O)Nc2ccccn2)cc1OC (stereo not drawn) | -5 | ·
COc1ccc(C(CNC(=O)NC(C)(C)C)N2CCN(C)CC2)cc1 (stereo not drawn) | 8 | ·
COc1ccc(OC)c2[nH]c(=O)c(CCNC(=O)CC3CCCCC3)cc12 | -21 | ·
